High-throughput results (PubChem)
BJeLR lethal = BJeLR cell viability loss. 0.17% of 300,000 active. AID 1554. BJeLR (HRASV12) viability, CellTiter-Glo ATP luminescence, 48 h; reference of the scale not given here. inhibition, % (test concentration not listed);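 active = replicate mean above 50%; inconclusive = above 50% but judged a plate artefact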;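 also: 50 nL library stock added to about 25 µL; numbers are from one replicate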
Mtb hypoxia inh = reduces hypoxia-regulated biosensor signal in M. tuberculosis | M. tuberculosis hypoxia-regulated fluorescent reporter, fluorescence | fluorescence inhibition, % (test concentration not listed) | 0.1% of 300,000 active;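 active = 35 to 45% if threefold the growth effect, above 45% if 1.5-fold the growth effect; inactive = the rest, general growth blockers included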;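 also: wells of about 50 µL received 100 nL stock; 0% = vehicle wells and 100% = reference inhibitor wells; whole bacteria with a GFP reporter of the hypoxia response; strong numbers were not always called active; many hits fall short of the cut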
ugtP null kill = compounds lethal to S. aureus RN4220 ugtP deletion mutant. 0.54% of 330,000 active. growth inhibition, % (no concentration beside the values). OD600 growth, 16 h; some inactives read as strong as hits;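 active = z-score under -3 and OD600 up to 0.15 on both plates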;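 also: plate controls were untreated wells for no effect and antibiotic for full effect; wells of about 80 µL received 100 nL stock; the first replicate is given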
Sa RN4220 lethal = kills Staphylococcus aureus RN4220. 0.33% of 330,000 active. inhibition, % (test concentration not listed). S. aureus RN4220 growth, OD600, 16 h;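 active = z-score of -3 or lower and OD600 up to 0.18 on both plates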;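 also: plate controls were untreated cells for no effect and reference antibiotic for full effect; stock transfer was 100 nL into about 80 µL; one replicate is shown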
PrP UTR inh = suppresses PrP 5' UTR mRNA reporter expression | cell-based PrP 5' UTR mRNA reporter, plate reader | AID 488862 | inhibition, % (no concentration beside the values) | 0.35% of 340,000 active;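 active = every replicate at 50% or more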;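 also: 0 = median of the neutral control wells; tested in H4 reporter cells; numbers are from one replicate; inactives centre near -14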
Autofluor counter = flagged as autofluorescent in microsphere protease counterscreen. compound autofluorescence counterscreen, microsphere flow cytometry; hits give high values. fluorescence intensity (concentration not given with the values). 3.1% of 360,000 active. AID 624483;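 active = at least 3 SD above the mean of all compounds, about 16000 in these data; inconclusive = too few beads counted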;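 also: 100 nL of 1 mM stock went into each well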
Mtb hypoxia inh growth = further read-out of Mtb hypoxia inh, marked with its call; growth inhibition, %; measured here: M. tuberculosis growth (absorbance);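 0% = vehicle and 100% = reference antibiotic; read after six days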
* marks the source's active call; other numbers are inactive results; ? = inconclusive; . = no result given.

Compound	BJeLR lethal	Mtb hypoxia inh	Mtb hypoxia inh growth	ugtP null kill	Sa RN4220 lethal	PrP UTR inh	Autofluor counter
Cc1ccccc1NC(=O)Cc1nc(COC(=O)CCNS(=O)(=O)c2ccccc2)cs1	-8	6	6	10	2.9	-2	?
Cc1ccc(C(=O)c2cc([N+](=O)[O-])ccc2N2CCOCC2)cc1C	8	0	-5	8	-0.5	24	2177
CC(=O)c1ccc(NC(=S)NCCCn2ccnc2)cc1	4	14	12	4	0.0	-40	3397
CN(Cc1ccccc1)S(=O)(=O)c1ccc(NC(=O)C2CCCO2)cc1 (stereo not given)	-19	-5	9	7	4.8	-20	11110
CC1=C(C(=O)OCc2ccccc2)C(c2cccc(Br)c2)NC(=O)N1 (stereo not given)	-10	4	3	3	5.1	-73	?
O=S(=O)(NCc1cccnc1)c1ccc(Cl)c2ccccc12	-3	-1	-1	-1	6.1	-1	3989
CCOC(=O)C1=C(CN2CCOCC2)NC(=O)NC1c1cccc([N+](=O)[O-])c1 (stereo not given)	-12	-6	-7	10	4.0	0	4168
Cc1ccc(C(=O)O/N=C(\N)c2ccc(C(F)(F)F)cn2)cc1	12	.	.	.	.	-40	3844
O=C(NC1=NCCS1)c1ccc(Cl)cc1	-28	-5	6	2	3.4	-82	3954
O=C1C=CC(=O)N1Cc1cccnc1	.	13	9	4	2.7	-17	3976
COc1ccc(CCC(=O)NCCNC(=O)CCc2ccc(OC)cc2)cc1	-10	7	0	6	-3.3	-39	3814
CCOc1ncccc1C(=O)OCc1ccc(Cl)cc1	-3	-2	6	27	0.2	-2	2180
COc1cc(CNc2ccc3[nH]c(=O)[nH]c3c2)ccc1OCc1ccccc1C	9	12	7	9	0.6	-52	3077
COc1cccc(C2C(C#N)=C(N)N(N(C)C)C3=C2C(=O)CCC3)c1 (stereo not given)	-22	6	2	2	1.4	-24	3716
Cc1onc(-c2ccccc2)c1NC(=O)Nc1ccc(OC(F)F)cc1	3	-2	1	2	-1.2	.	.
C[C@]12CC[C@H](O)C[C@@H]1CC[C@@H]1[C@@H]2CC[C@@]2(C)[C@H]1CCC(=O)[C@]21CCCO1	.	6	11	18	7.0	-5	3796
Cc1[nH]c2ccccc2c1SCCNC(=O)c1ccc(Br)o1	0	10	7	-24	2.1	4	7887
COCCN=C1Sc2nc3ccc(C)cc3cc2CN1Cc1ccco1	5	2	17	-4	13	-26	3546
COc1ccccc1C1CC(c2ccco2)=NN1S(C)(=O)=O (stereo not given)	2	15	7	3	2.9	30	6876
COCC(=O)N(Cc1nc2ccccc2c(=O)[nH]1)Cc1cccs1	-1	9	6	1	5.7	-23	4703
CC(C)(O)CNC(=O)C(Cc1ccccc1)N1C(=O)c2ccccc2C1=O (stereo not given)	3	-7	1	-2	1.3	-15	4168
COc1ccc(S(=O)(=O)Nc2cccc3c2O[C@H](CN(C)S(=O)(=O)c2ccc(F)cc2)[C@H](C)CN([C@H](C)CO)C3=O)cc1	.	-12	4	7	7.7	-5	2769
O=C(c1ccc(F)cc1)n1ccc(-c2cnc(-c3ccccc3)s2)n1	-1	.	.	-5	1.9	-61	5843
CC1(C)Cc2cccc(OCC(=O)OCC(=O)NCc3ccc(F)cc3)c2O1	6	0	0	3	4.0	-16	?
CNC(=S)NNc1ccccc1[N+](=O)[O-]	-1	-2	-5	3	1.5	-1	4689

(listing goes on)
Compound	BJeLR lethal	Mtb hypoxia inh	Mtb hypoxia inh growth	ugtP null kill	Sa RN4220 lethal	PrP UTR inh	Autofluor counter
CC(C)(C)CNc1cc(N2CCCC2)ccc1[N+](=O)[O-]	0	5	-2	7	2.7	-7	7728
O=C(NCc1ccccn1)C(=O)NCC1OCCN1S(=O)(=O)c1ccc(F)cc1 (stereo not given)	-17	7	1	4	2.6	-5	4500
CCCCCN(C(=O)CCC(=O)OCC(=O)c1ccc(CCC)cc1)c1c(N)n(CCCC)c(=O)[nH]c1=O	-3	-2	-10	12	4.8	0	?
CCOC(=O)N1CCN(S(=O)(=O)c2cccs2)CC1	-5	.	.	0	0.9	-26	4819
Nc1cnc(CNc2ccccc2Cl)cn1	-4	2	6	4	3.6	-15	2917
CN(C(=O)c1ccc(Br)o1)C1CCS(=O)(=O)C1 (stereo not given)	-3	-3	-6	4	2.5	-6	3868
COc1ccc(S(=O)(=O)N2CCCC(C(=O)Nc3ccc(OC)c(OC)c3)C2)cc1 (stereo not given)	0	7	6	-1	4.6	-20	8947
COc1ccccc1NC(=O)NC1(C(=O)NCC2CCCO2)CCCCC1 (stereo not given)	5	-5	-2	7	0.0	-19	4036
O=C1C=C(O)CC(c2ccc(Cl)c(Cl)c2)C1 (stereo not given)	-4	1	7	-13	12	4	2810
CCCn1c(N)c(N(CCOC)C(=O)c2ccc(C#N)cc2)c(=O)[nH]c1=O	-9	-10	-7	9	-0.8	-12	3583
CC(C)c1ccc(CNC(=O)C2CC(=O)N(C3CCCCC3)C2)cc1 (stereo not given)	3	-1	-2	8	0.4	-16	4845
C=CCNC(=O)NC(=O)COC(=O)/C=C/c1cccc([N+](=O)[O-])c1	-8	-3	11	1	9.9	-11	4499
COc1cc(NC(=O)CSc2nnc3ccc(-c4ccncc4)nn23)cc(OC)c1	-3	-6	5	0	2.6	-33	4595
O=C1CSc2ccc(C(=O)NCC(c3ccco3)N3CCCCC3)cc2N1 (stereo not given)	0	14	15	22	3.6	-8	4380
CC(=O)Nc1ccc(NC(=O)c2c(C)nc3ccccn23)cc1	3	-1	-4	-2	-2.8	-20	8757
Cc1nnc(SCC(=O)Nc2sc3c(c2C#N)CCCCC3)n1N	-4	6	9	1	-0.6	-25	2474
COc1ccc(C(=O)Nc2cccc(OC(=O)c3ccc(C)c(C)c3)c2)cc1	5	.	.	16	7.6	-39	4621
COCCn1c(-c2ccccc2)cc(C(=O)O)c1C	4	.	.	12	-1.0	-5	3686
Cc1ccc(C(C)(c2ccc(N)cc2)c2ccc(N)cc2)cc1	-4	2	8	28	-6.4	-27	3311
CC(C)C(=NNc1ccccc1[N+](=O)[O-])c1ccccc1	.	13	7	42	3.3	.	.
Cc1cc(C(=O)Nc2cccc(/C=C/C(=O)O)c2)c(C)o1	-2	8	6	1	6.4	-18	11026
CCN(CC)S(=O)(=O)c1ccc(NC(=O)c2ccc(Cl)nc2)cc1	3	5	12	4	2.5	-10	4050
Cc1cc(Cl)ccc1C(=O)C1CCCN(C(=O)c2ccsc2)C1 (stereo not given)	-7	8	3	-5	3.6	-18	5674
O=C1CC(C(=O)O)NC(=S)N1 (stereo not given)	.	18	11	7	1.4	-25	3619
COC(=O)C1=C(C)N(Cc2ccccc2)C(=NCC(C)C)NC1c1cccc(F)c1 (stereo not given)	.	3	15	-32	-1.2	.	.

Continued.
Compound	BJeLR lethal	Mtb hypoxia inh	Mtb hypoxia inh growth	ugtP null kill	Sa RN4220 lethal	PrP UTR inh	Autofluor counter
CCc1noc(C)c1C(=O)N(C)CC(=O)Nc1ccccc1Br	0	4	1	2	2.1	-23	5343
C/C(=N/N=C(/C)c1cccs1)c1cccs1	-11	.	.	.	.	-82	3361
O=C(N/N=C/c1c(Cl)[nH]c2ccccc12)c1sc2ccccc2c1Cl	9	.	.	.	.	-27	2243
Cc1ccc(NC(=O)CCCc2ccccc2)c([N+](=O)[O-])c1	0	-4	-6	1	3.5	-29	3744
CCc1ccc2c(c1)C(O)(CC(=O)c1cccs1)C(=O)N2 (stereo not given)	1	17	3	9	-2.4	0	4358
O=C1NC(c2ccccc2)Nc2c1sc(=S)n2-c1ccccc1 (stereo not given)	-1	5	13	27	18	-25	4122
O=C(OCn1nnc2ccccc2c1=O)C1CCN(S(=O)(=O)c2cccs2)CC1	-28	8	9	-3	1.6	-16	9055
O=C(/C=C/c1ccccc1)NCCc1ccccc1	25	.	.	-7	-0.6	-52	4543
Fc1ccc(N/N=C/C=C/c2ccccc2)c(F)c1	3	.	.	.	.	-46	1981
Cc1ccc(C(=O)Nc2nnc(-c3ccncc3)o2)cc1	0	-9	-10	9	-5.3	-49	3956
Cc1cc(C)cc(OCC(=O)OCc2nnc(-c3ccccc3)o2)c1	-3	2	1	1	4.6	-12	3345
O=C1c2ccccc2C(=O)c2c1ncn2-c1ccccc1	3	-7	-6	16	42	-19	2527
CCOc1ccc(S(=O)(=O)NCCC(=O)N(C)Cc2cccs2)cc1	.	6	-6	2	5.3	-11	8788
CCOc1ccc(-n2c(SCc3ccc(C(=O)OC)o3)nc3c(c2=O)SCC3)cc1	.	11	4	2	8.3	-22	10243
CCCCCCCNC(=O)CN1N=C(c2ccc(C)cc2)CCC1=O	-5	9	5	-11	3.1	-40	3904
CCOC(=O)c1nn(-c2ccccc2F)c(-c2ccccc2)c1C(=O)c1ccccc1	2	6	1	4	-2.0	-26	3181
CCOC(=O)Nc1sc(C)c(C)c1C(=O)OCC	-6	18	7	25	1.1	-7	1934
CC(=O)C(Cc1ccccc1)NC(=O)CN1c2cccc3cccc(c23)S1(=O)=O (stereo not given)	.	0	-6	3	4.0	5	3124
CCN(CC)c1ccc(NC(=O)c2[nH]c(C)c(C(C)=O)c2C)c(C)c1	0	.	.	5	-1.7	-94	3181
C[C@@H]1CC2[C@@H]3CC[C@H]4CC(=O)CC[C@]4(C)C3=CC[C@]2(C)[C@@]1(O)C(=O)CO (stereo not given in full)	2	6	12	20	12	5	2830
O=C(Oc1ccc(=O)n(-c2ccccc2)n1)c1ccc(Cl)cc1	-4	.	.	4	-0.9	-29	4935
CCN(Cc1ccccc1)C(=O)c1ccc(Cl)cc1[N+](=O)[O-]	3	6	3	11	3.0	-39	4473
NC(=O)COc1ccc(NC(=O)CC23CC4CC(CC(C4)C2)C3)cc1	4	-6	0	10	5.5	-18	4787
COc1ccc(CCn2c(C)cc(C(=O)COC(=O)c3cnc(C)cn3)c2C)cc1	6	0	2	3	5.2	-12	6100
CC(=O)C1C(c2ccc([N+](=O)[O-])cc2)c2c(noc2C)CC1(C)O (stereo not given)	-13	4	4	4	1.6	-9	4339

Later entries:
Compound	BJeLR lethal	Mtb hypoxia inh	Mtb hypoxia inh growth	ugtP null kill	Sa RN4220 lethal	PrP UTR inh	Autofluor counter
COc1ccc(N=C2NN=C(c3c(C)[nH]c4ccccc34)CS2)cc1	9	-2	3	-9	-4.1	-25	1996
CCOC(=O)C1CCN(C(=O)c2cc3c(=O)n4cccc(C)c4nc3s2)CC1	3	7	4	-1	1.5	-11	4010
COc1cc(C(=O)CCc2ccc3c(c2)OCO3)cc(OC)c1OC	.	9	9	3	2.9	-25	4008
Cc1ccc(S(=O)(=O)c2c(N)n(CCN3CCOCC3)c3nc4ccccc4nc23)cc1C	-7	.	.	6	2.4	-8	3070
Cc1ccc(NC(=O)CSCc2cc(=O)n3nc(C4CC4)sc3n2)cc1	4	1	2	2	4.4	-7	6231
Cc1cc(CN2CCN(CC(=O)Nc3cc(Cl)ccc3-n3cncn3)CC2)no1	.	11	-2	7	3.6	-10	4869
O=C(CCc1ccccc1)N/N=C/c1cccc(O)c1	-4	.	.	.	.	-9	3822
Cc1[nH]c2ccccc2c1CCNC(=O)c1c(N)no[n+]1[O-]	-25	14	8	8	-2.2	5	4273
COC(=O)N/N=C/c1ccc(-c2ccc(Cl)c(Cl)c2)o1	-2	.	.	.	.	-21	2731
CCc1ccc(N2CC(C(=O)OCC(=O)NC3CC3)CC2=O)cc1 (stereo not given)	.	0	-9	-4	-3.8	-13	3833
CC(C)(C)N(NC(=O)Nc1ccc(Cl)cc1)C(=O)c1ccccc1	18	1	8	0	0.4	-19	2471

Compound profiles, from the list above. Order of screens: BJeLR lethal | Mtb hypoxia inh | Mtb hypoxia inh growth | ugtP null kill | Sa RN4220 lethal | PrP UTR inh | Autofluor counter
Listed for Cc1[nH]c2ccccc2c1CCNC(=O)c1c(N)no[n+]1[O-] = -25 | 14 | 8 | 8 | -2.2 | 5 | 4273
Listed for O=C(CCc1ccccc1)N/N=C/c1cccc(O)c1 = -4 | . | . | . | . | -9 | 3822
Listed for CC(C)(C)N(NC(=O)Nc1ccc(Cl)cc1)C(=O)c1ccccc1 = 18 | 1 | 8 | 0 | 0.4 | -19 | 2471
Listed for CCOC(=O)C1CCN(C(=O)c2cc3c(=O)n4cccc(C)c4nc3s2)CC1 = 3 | 7 | 4 | -1 | 1.5 | -11 | 4010

Outcome played no part in choosing rows; overall some 4% were active at least once.
